CSC inhib: cancer stem cell viability inhibitors, primary screen, luminescence; AID 2717, 2010; 300,000 compounds, 1.1% hits; cancer stem cell-like cells viability; inhibition, % at 7.5 µM;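 active = mean at 75% or more and at least half the replicates too; tested in HMLE shEcad cells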;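 note: 0% = median of negative and 100% = median of positive control wells; the first replicate is given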
PABP polyA inh: PABP poly(A) RNA binding inhibitors, primary screen, biochemical, fluorescence polarization, uHTS; inhibition, % at 35 µM; 290,000 compounds, 1% hits; Polyadenylate-binding protein 1 (Homo sapiens), P11940; AID 2014, 2009;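 active = 50% or more with normal probe brightness, or confirmed in later tests; about a fifth of its hits are not listed in these tables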;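 note: calls also rest on retests at 20 µM and on dose response follow-up; controls were probe without protein and protein plus probe with vehicle; some compounds called inactive have numbers as strong as hits; many hits fall short of the cut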
Target sequence (P11940 whole entry, looked up): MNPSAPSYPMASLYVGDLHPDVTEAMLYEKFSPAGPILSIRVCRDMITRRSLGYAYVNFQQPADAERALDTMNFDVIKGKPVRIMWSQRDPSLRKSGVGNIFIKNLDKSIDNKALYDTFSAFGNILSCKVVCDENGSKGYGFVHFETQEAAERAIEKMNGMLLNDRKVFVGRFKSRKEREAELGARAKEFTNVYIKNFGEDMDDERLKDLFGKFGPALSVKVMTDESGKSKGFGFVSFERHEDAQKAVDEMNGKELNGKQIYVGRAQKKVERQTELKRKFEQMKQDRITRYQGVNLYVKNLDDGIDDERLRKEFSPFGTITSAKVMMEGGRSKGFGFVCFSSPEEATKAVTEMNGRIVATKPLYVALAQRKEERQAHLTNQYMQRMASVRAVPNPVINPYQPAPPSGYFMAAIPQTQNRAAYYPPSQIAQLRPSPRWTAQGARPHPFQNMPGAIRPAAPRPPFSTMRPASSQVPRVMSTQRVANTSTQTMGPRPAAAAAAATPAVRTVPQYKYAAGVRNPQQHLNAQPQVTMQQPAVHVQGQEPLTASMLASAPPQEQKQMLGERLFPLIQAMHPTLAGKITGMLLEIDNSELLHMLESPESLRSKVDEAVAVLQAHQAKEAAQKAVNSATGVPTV
Yeast UUG start: modulators of yeast start codon fidelity, primary screen, whole organism, S. cerevisiae, single point, plate reader; activity score, % at 18.7 µM; AID 602363, 2012; 350,000 compounds, 0.13% hits; S. cerevisiae UUG-firefly luciferase reporter, luminescence/redox ratio;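 active = replicate mean at a twofold rise or more, about +100% in these data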;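 note: firefly luciferase made from a UUG start codon reports start codon fidelity; reporter light over untreated wells divided by growth signal over untreated wells; some hits fall short of that in this replicate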
eIF4H FP inh: human eIF4H binding inhibitors, primary screen, translation initiation inhibitor project, biochemical, uHTS, fluorescence polarization. Eukaryotic translation initiation factor 4H (Homo sapiens), Q15056. inhibition, % at 35 µM. AID 2012, 2009. eIF4H fluorescence polarization binding assay. 290,000 compounds, 0.94% hits;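 active = 50% or more with normal probe brightness, or confirmed in later tests; about a fifth of its hits are not listed in these tables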;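 note: calls also rest on retests at 20 µM and on dose response follow-up; 0% = protein and probe with vehicle and 100% = probe without protein; strong numbers were not always called active; many hits fall short of the cut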
HIV Env fusion: inhibitors of HIV-1 Env-driven cell-cell fusion, primary screen, HeLa-JRFL effector, CEM21 target cells, luciferase; inhibition, % at 12.3 µM; AID 651610, 2012; 360,000 compounds, 1.1% hits;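 active = mean replicate inhibition score of at least 50 and every replicate individually at or above 50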;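 note: 0% = plate neutral controls and 100% = maraviroc near 300 nM; one replicate is shown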
Rce1 inh: yeast Rce1p protease inhibitors, primary screen, biochemical, fluorescence, cell-free homogeneous. yeast membranes, quenched prenylated peptide cleavage fluorescence. CAAX prenyl protease 2 (Saccharomyces cerevisiae (strain ATCC 204508 / S288c)), Q03530. calls only. 290,000 compounds, 0.27% hits;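 active = fall in fluorescence gain of 50% or more versus controls, with final raw signal at or below 3038400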;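 note: plate controls were neutral control wells for no effect and wells lacking membranes for full effect; tested at 10 µM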
Target sequence (Q03530 whole entry, looked up): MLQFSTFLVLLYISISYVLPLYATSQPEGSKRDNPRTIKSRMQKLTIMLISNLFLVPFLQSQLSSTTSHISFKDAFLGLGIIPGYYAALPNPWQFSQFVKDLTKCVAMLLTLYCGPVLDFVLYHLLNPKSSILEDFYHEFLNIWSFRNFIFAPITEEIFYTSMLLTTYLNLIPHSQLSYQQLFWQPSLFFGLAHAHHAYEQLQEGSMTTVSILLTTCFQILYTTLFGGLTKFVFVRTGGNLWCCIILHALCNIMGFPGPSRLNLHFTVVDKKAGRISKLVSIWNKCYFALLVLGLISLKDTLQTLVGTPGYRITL
MT1-MMP act inh: blockers of MT1-MMP proenzyme processing, primary screen, HT1080 RFP-PRO-GFP cells, GFP/RFP fluorescence. Matrix metalloproteinase-14 (Homo sapiens), P50281. GFP/RFP ratio fluorescence, overnight; percent of plate control window, DMSO zero. GFP/RFP ratio change, % at 20 µM. 360,000 compounds, 0.061% hits;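 active = GFP/RFP ratio change of at least 30% with cell ATP level not reduced by more than half and red fluorescence within 50% of control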; note: strong numbers were not always called active
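Compound: 20 µM single dose, 1% DMSO / System: HT1080 RFP-PRO-GFP cells / Controls: DMSO and RFP-L50D-GFP cell wells / Read-out basis: GFP/RFP fluorescence ratio / Schedule: overnight compound exposure at 37 °C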
eIF4H FP inh retest: also measured in eIF4H FP inh; calls as there; inhibition, %; compound at 20 µM; confirmation average;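 mean of two retest wells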
PABP polyA inh retest: further read-out of PABP polyA inh, marked with its call; inhibition, %; compound at 20 µM; confirmation repeats;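 mean of two retest wells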
MT1-MMP act inh RFP: further read-out of MT1-MMP act inh, marked with its call; RFP signal change, %; measured here: RFP expression control read;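 0 = vehicle wells; hits needed this value within 50% of zero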
* marks the source's active call; other numbers are inactive results; i = inactive; · = no result given.

SMILES | CSC inhib | PABP polyA inh | Yeast UUG start | eIF4H FP inh | HIV Env fusion | Rce1 inh | MT1-MMP act inh | MT1-MMP act inh RFP | others
CCN(CC)CCCN=C1N[C@@H](c2cccc(C(F)(F)F)c2)C(C(=O)OC)=C(C)N1CC | · | · | -3 | · | 30 | · | -1 | 2
CCC1(CC)C(=O)N(C)C(=O)NC1=NCc1ccccc1 | -6 | -4 | -11 | -10 | · | i | 2 | 5
CC(=O)C1=C(c2ccccc2)NC(=O)NC1c1ccc(O)c(Cl)c1 (configuration not stated) | -11 | 13 | -14 | 2 | 9 | i | -1 | -1
Cc1cccc(NC(=O)CN2CCCN(S(=O)(=O)c3ccc(Br)s3)CC2)c1 | 18 | -7 | -5 | -4 | -28 | i | 1 | -8
CN(CCOc1ccccc1)CC(O)COc1ccccc1 (configuration not stated) | 4 | 12 | -15 | -6 | -2 | i | 1 | 4
Cc1ccccc1NS(=O)(=O)c1cc(C(=O)NCCC2=CCCCC2)ccc1C | -6 | -4 | 1 | -6 | · | i | -14 | -9
CCC(C)Cn1cnc2c(SCc3ccccn3)nc(N)nc21 (configuration not stated) | · | · | -24 | · | 17 | · | 3 | -6
COc1cccc2c1cc1c(=O)n(CC(=O)NCCCc3ccccc3)nc(C)n12 | -9 | 1 | -6 | -2 | · | i | 0 | 0
O=c1[nH]c2ccccc2nc1Cc1ccc(Cl)cc1 | 9 | -6 | -7 | -5 | -5 | i | 2 | 1
CCC(C)(C)C1CCC2(CC1)NC(=O)N(CC(=O)N(C)CCOc1ccc(Cl)cc1)C2=O (configuration not stated) | · | · | 4 | · | 32 | · | -5 | -15
Cc1csc2nc(SCC(=O)Nc3ccccc3F)[nH]c(=O)c12 | 16 | -1 | 0 | -11 | -23 | i | 10 | 5
O=C(c1ccc(Cl)c(S(=O)(=O)N2CCCCCC2)c1)N1CCN(CCO)CC1 | 3 | 2 | -12 | -6 | -13 | i | 3 | 3
O=C1C=CC(=O)N1Cc1ccccn1 | · | · | -10 | · | -3 | · | -1 | 4
COc1ccc(CN2CCN(C(=O)c3ccc4nc(N5CCOCC5)sc4c3)CC2)c(OC)c1OC | 12 | -4 | -3 | -4 | -5 | · | 2 | 0
O=C1NN(c2ccccc2)C(=O)/C1=C/c1coc2ccccc2c1=O | 3 | -11 | · | 1 | · | i | 1 | 3
CCOc1ccc(/C=N/NC(=O)c2ccc(Cn3cc(Br)cn3)o2)cc1 | -1 | -4 | · | 0 | -16 | i | -1 | -2
COc1ccc(-c2cc(C(=O)N3CCN(c4ccccn4)CC3)c3ccccc3n2)cc1 | 32 | 2 | 2 | -3 | -129 | i | -10 | -17
Cc1cc(N)n2ncc(-c3ccc(F)cc3)c2n1 | -12 | 2 | -11 | -1 | i | i | 0 | -4
CCOc1ccc2nc(SCC(=O)c3ccc(C)s3)sc2c1 | -14 | 4 | 16 | -1 | -63 | i | 1 | -3
O=C(NCc1ccco1)C1(c2ccccc2)CCCC1 | -7 | -6 | -16 | -6 | · | i | -2 | -1

Overlap with the part before: 2 compounds, then new ones.
SMILES | CSC inhib | PABP polyA inh | Yeast UUG start | eIF4H FP inh | HIV Env fusion | Rce1 inh | MT1-MMP act inh | MT1-MMP act inh RFP | others
CCOc1ccc2nc(SCC(=O)c3ccc(C)s3)sc2c1 | -14 | 4 | 16 | -1 | -63 | i | 1 | -3
O=C(NCc1ccco1)C1(c2ccccc2)CCCC1 | -7 | -6 | -16 | -6 | · | i | -2 | -1
O=C(COc1ccc2ccc(=O)oc2c1)Nc1c(Cl)cccc1C(F)(F)F | -12 | 10 | 10 | 18 | -9 | i | -1 | -2
FC(F)(F)c1cnc(COc2cc(Cl)cc(Cl)c2)c(Cl)c1 | -2 | 13 | -12 | -3 | -10 | · | -1 | 1
CCCn1c(=O)[nH]c(=O)c2c1nc(-c1ccc(OC(F)F)c(OC)c1)n2CCOC | 1 | -2 | -23 | -2 | · | i | 10 | 6
COc1cc(/C=N/N2CCN(c3ccccc3)CC2)cc(OC)c1OC(C)=O | -16 | -2 | -11 | -3 | 4 | i | 7 | 5
Cc1cccn2c(=O)c(C=NCCO)c(NCc3ccco3)nc12 | -8 | -1 | -10 | -4 | -15 | i | -1 | 2
c1cncc(-c2noc(C34CC5CC(CC(C5)C3)C4)n2)c1 | · | 14 | -23 | -4 | -41 | i | -6 | -3
CCCCC(=O)Nc1cc(C)c(NC(=O)c2ccco2)cn1 | -12 | -10 | -5 | -3 | -7 | i | 1 | 2
COc1ccc(/C=C/C(=O)OC2CCCN(C)C2)cc1 (configuration not stated) | -4 | 0 | -10 | -4 | 9 | i | 2 | 7
Cc1ccccc1C(=O)c1cccn1CC(=O)O | -5 | 19 | -17 | 22 | · | i | 0 | 7
OCCC1CN(Cc2ccncc2)CCN1C1CCCC1 (configuration not stated) | -7 | 2 | · | -2 | 17 | i | 4 | 6
CCOC(=O)c1[nH]c2ccc(OC)cc2c1NC(=O)CN1CCN(c2ccccn2)CC1 | -6 | 9 | · | 7 | · | i | · | ·
Cn1nc([N+](=O)[O-])nc1Oc1ccc(C(C)(C)C)cc1 | -1 | -8 | -24 | -1 | · | i | 3 | -4
Cc1ccc(S(=O)(=O)N2CCC(=O)N(CCOCc3cccc(C(F)(F)F)c3)CC2)cc1 | -7 | 7 | -19 | 0 | 43 | i | 3 | -13
CC(C)(C)c1ccc(-c2nc(NCc3cccnc3)c3ccccc3n2)cc1 | 133* | 20 | · | 4 | -11 | i | -1 | -4
CC1(C(=O)NS(=O)(=O)c2ccc(Cl)cc2)CCN1C(=O)c1ccco1 (configuration not stated) | · | · | -15 | · | 8 | · | 7 | 15
COC(=O)c1c(NC(=O)c2ccc(S(=O)(=O)N3CCOCC3)cc2)sc2c1CCN(C(C)C)C2 | 15 | · | -7 | · | -6 | i | -10 | -4
Cc1ccc(C(=O)C(C)N(C(=O)c2ccc(Cl)cc2Cl)N2C(=O)CCCC2=O)cc1 (configuration not stated) | -18 | 7 | · | -6 | -9 | i | 0 | 0
Brc1ccc(-c2csc(NC3=NCCCCC3)n2)cc1 | 17 | -3 | · | -10 | -28 | i | -2 | 0
COc1ccc2c(c1)CN(C)S(=O)(=O)c1ccccc1-2 | · | · | -24 | · | -19 | · | 2 | 1
CCCCC(=O)Nc1ccc(NC(=O)c2cccs2)cn1 | 20 | · | · | · | · | i | -1 | 5

5 structures already listed, ordered by molecular weight, low to high.
SMILES | CSC inhib | PABP polyA inh | Yeast UUG start | eIF4H FP inh | HIV Env fusion | Rce1 inh | MT1-MMP act inh | MT1-MMP act inh RFP | others
Cc1ccccc1C(=O)c1cccn1CC(=O)O | -5 | 19 | -17 | 22 | · | i | 0 | 7
FC(F)(F)c1cnc(COc2cc(Cl)cc(Cl)c2)c(Cl)c1 | -2 | 13 | -12 | -3 | -10 | · | -1 | 1
COc1cc(/C=N/N2CCN(c3ccccc3)CC2)cc(OC)c1OC(C)=O | -16 | -2 | -11 | -3 | 4 | i | 7 | 5
Cc1ccc(S(=O)(=O)N2CCC(=O)N(CCOCc3cccc(C(F)(F)F)c3)CC2)cc1 | -7 | 7 | -19 | 0 | 43 | i | 3 | -13
COC(=O)c1c(NC(=O)c2ccc(S(=O)(=O)N3CCOCC3)cc2)sc2c1CCN(C(C)C)C2 | 15 | · | -7 | · | -6 | i | -10 | -4

Carrying on:
SMILES | CSC inhib | PABP polyA inh | Yeast UUG start | eIF4H FP inh | HIV Env fusion | Rce1 inh | MT1-MMP act inh | MT1-MMP act inh RFP | others
CCc1ccc(NC(=O)CCc2nnc3ccc(N4CCC5(CC4)OCCO5)nn23)cc1 | 4 | 11 | -4 | -4 | -4 | i | -1 | -1
COC(=O)c1sc(NC(=O)COc2c(C)cccc2C)nc1C | 2 | -1 | · | 8 | 2 | i | -1 | 6
CC(=O)c1cnc2cc(-c3cccc(Br)c3)nn2c1C | -4 | -13 | -13 | -6 | -59 | i | 2 | 2
Cc1cc(Cl)ccc1N(CC(=O)NCc1ccc2c(c1)OCO2)S(C)(=O)=O | -9 | 0 | · | 6 | 1 | · | 1 | 0
CSC(=NCc1ccco1)NC#N | -15 | -8 | · | -6 | -9 | i | 3 | 4
CCOc1cc(-c2nc(C)c(C(C)=O)n2O)ccc1OCC(=O)Nc1cccc(C)c1 | -4 | 0 | -10 | 2 | 7 | i | 2 | 3
COc1ccc(N/C(=C(/C(Cl)=C(Cl)Cl)[N+](=O)[O-])n2nnc3ccccc32)cc1OC | 0 | 56 | · | 6 | · | i | · | · | eIF4H FP inh retest=8;PABP polyA inh retest=16
Cc1c(C(=O)N/N=C/c2ccccc2)sc(=S)n1C | -9 | -4 | -21 | -8 | · | i | 1 | 4
Nc1[nH]ncc1-c1ccc(F)cc1 | -7 | 3 | -9 | -2 | -2 | · | -2 | 3
COc1cnc(SCc2c(Cl)cccc2Cl)nc1Cl | · | -5 | -13 | 0 | · | i | -7 | -7
CC(C)(C)OC(=O)N(CCc1ccccc1)Cc1ccc(OCc2cccc(NC(=O)C3CCC3)c2)cc1 | · | · | -3 | · | 32 | · | -6 | -20
CCC(C)C(CO)NCCCn1cnc2c(SC)ncnc21 (configuration not stated) | · | · | -7 | · | 18 | · | 3 | 4
S=C(NCc1ccco1)N1CCN(c2ccccn2)CC1 | -14 | -12 | -7 | 3 | 11 | i | 7 | 1
C=CCOc1c(Br)cc(/C=C2\SC(=Nc3ccccc3)NC2=O)cc1OC | 32 | -12 | -16 | 3 | 9 | i | -55 | -12
O=C(Nc1cc(Sc2ccccn2)cc([N+](=O)[O-])c1)c1cccc(F)c1 | 40 | -17 | · | 1 | 19 | i | -12 | -20
COc1ccc(C(C)=O)cc1COC(=O)c1ccc(N)c([N+](=O)[O-])c1 | -4 | 2 | · | 9 | -10 | i | 1 | 1
COC(=O)CC1C(=O)NC2CCCCC2N1C(=O)c1ccccc1 (configuration not stated) | 4 | -5 | 0 | -5 | · | i | -1 | -1
Fc1ccc(C2=Nn3c(Cc4ccccc4)nnc3SC2)cc1 | -7 | 6 | -9 | -5 | · | i | -1 | 2
Cc1ccc2cc(CN(Cc3nnnn3C3CCCC3)C3CCCCC3)c(=O)[nH]c2c1C | · | -1 | -15 | -6 | · | i | 1 | 3
Cc1ccsc1/C=N/NC(=O)c1ccco1 | 7 | 8 | · | 3 | -18 | i | 1 | 3
CC(C)NC(=O)COc1ccc(S(=O)(=O)N2CCOCC2)cc1 | 9 | 7 | -11 | 4 | -69 | i | -4 | 2

Looked up by structure from the entries so far (four):
SMILES | CSC inhib | PABP polyA inh | Yeast UUG start | eIF4H FP inh | HIV Env fusion | Rce1 inh | MT1-MMP act inh | MT1-MMP act inh RFP | others
CC(=O)c1cnc2cc(-c3cccc(Br)c3)nn2c1C | -4 | -13 | -13 | -6 | -59 | i | 2 | 2
Fc1ccc(C2=Nn3c(Cc4ccccc4)nnc3SC2)cc1 | -7 | 6 | -9 | -5 | · | i | -1 | 2
COc1cnc(SCc2c(Cl)cccc2Cl)nc1Cl | · | -5 | -13 | 0 | · | i | -7 | -7
Cc1cc(Cl)ccc1N(CC(=O)NCc1ccc2c(c1)OCO2)S(C)(=O)=O | -9 | 0 | · | 6 | 1 | · | 1 | 0

These rows are one share of the data; count on the stated rates, not on these rows.
